Vaccinia inh: blocks a specific stage of Vaccinia orthopoxvirus infection, primary screen, cell-based, single point; 89,000 tested, 0.01% active; activity change (mCherry), % (concentration not given with the values); AID 1053133, 2014; Vaccinia-infected cells, mCherry/Venus stage reporter fluorescence; hits give low values; some inactives read as strong as hits;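 active means mCherry past -33% and 40 or more points under the early reporter, replicates agreeing; inconclusive means past -33% without that gap or agreement; tested in A549 cells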;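 further: scaled between vehicle wells and reference inhibitor wells; 23 nL library stock went into each well; one replicate is shown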
Vaccinia inh Venus: recorded beside Vaccinia inh, whose call it bears; activity change (Venus), %; measured here: Venus reporter, other viral stage;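 negative = less Venus signal; first of two replicates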
* hit, by the source's call; ? = inconclusive; · = no result given; & = joins results of further samples.

SMILES	Vaccinia inh	Vaccinia inh Venus
COc1cccc(CN2[C@H](CO)[C@@H]3c4ccccc4N(C(=O)c4ccncc4)C[C@@H]32)c1	7	-5
O=C(C[C@H]1C=C[C@@H](NC(=O)Cc2cccnc2)[C@H](CO)O1)Nc1ccccc1	15	13
C[C@@H]1CCCCO[C@@H](CN(C)C(=O)Nc2cccc3ccccc23)[C@@H](C)CN([C@H](C)CO)C(=O)c2cc(NC(=O)C3CCCCC3)ccc2O1	-13	-8
C[C@H](CO)N1C[C@H](C)[C@@H](CN(C)C(=O)c2ccccn2)Oc2ncc(Br)cc2C1=O	1	12
O=C(C1CCCC1)N1CC[C@H]2[C@H](CO)Nc3ccc(Br)cc3[C@H]21	-15	-9
COc1cccc(-c2ccc([C@H]3[C@H](C#N)N(C(=O)c4ccccn4)[C@H]3CO)cc2)c1	-8	-1
COc1ccccc1C(=O)Nc1ccc2c(c1)C(=O)N(C)C[C@@H](OC)[C@@H](C)CN(CC1CC1)[C@H](C)CO2	7	0
CCN1[C@@H]2c3ccc(-c4ccccc4)c(=O)n3C[C@H]1[C@H](CO)[C@H]2C(=O)NCc1ccccc1	9	4
Cn1cnc(S(=O)(=O)N[C@@H]2C=C[C@H](CC(=O)NCC3CC3)O[C@H]2CO)c1	8	9
C[C@H]1CN([C@@H](C)CO)C(=O)Cc2cc(NC(=O)Nc3ccc4c(c3)OCO4)ccc2O[C@@H]1CN(C)C(=O)NC1CCCCC1	18	11
CCC(=O)N1CC(=O)N2[C@H](CO)[C@H](c3ccc(C#CCC(C)C)cc3)[C@H]2C1	?	·
COc1ccc(NC(=O)Nc2cccc3c2O[C@@H](CN(C)S(=O)(=O)c2ccc(OC)cc2)[C@H](C)CN([C@@H](C)CO)C3=O)cc1	11	8

The last 5 records of the section before come first, to join the parts:
SMILES	Vaccinia inh	Vaccinia inh Venus
CCN1[C@@H]2c3ccc(-c4ccccc4)c(=O)n3C[C@H]1[C@H](CO)[C@H]2C(=O)NCc1ccccc1	9	4
Cn1cnc(S(=O)(=O)N[C@@H]2C=C[C@H](CC(=O)NCC3CC3)O[C@H]2CO)c1	8	9
C[C@H]1CN([C@@H](C)CO)C(=O)Cc2cc(NC(=O)Nc3ccc4c(c3)OCO4)ccc2O[C@@H]1CN(C)C(=O)NC1CCCCC1	18	11
CCC(=O)N1CC(=O)N2[C@H](CO)[C@H](c3ccc(C#CCC(C)C)cc3)[C@H]2C1	?	·
COc1ccc(NC(=O)Nc2cccc3c2O[C@@H](CN(C)S(=O)(=O)c2ccc(OC)cc2)[C@H](C)CN([C@@H](C)CO)C3=O)cc1	11	8
C[C@@H]1CN([C@@H](C)CO)C(=O)CCCn2cc(nn2)CO[C@@H]1CN(C)S(=O)(=O)c1cn(C)cn1	0	6
COc1ccc2c3c([nH]c2c1)[C@@H](CO)N(Cc1ccccc1Cl)CC31CN(C(C)=O)C1	11	13
CCCNC(=O)N(C)C[C@@H]1Oc2ncc(-c3ccc(F)cc3)cc2C(=O)N([C@@H](C)CO)C[C@@H]1C	24	6
COc1ccc(NC(=O)N(C)C[C@H]2OCCCC[C@H](C)Oc3ccc(NC(=O)c4ccccc4)cc3C(=O)N([C@@H](C)CO)C[C@H]2C)cc1	7	4
C[C@@H]1CN([C@@H](C)CO)S(=O)(=O)c2ccc(C#CC3CC3)cc2O[C@H]1CN(C)C	-26	-34
COc1ccc(S(=O)(=O)Nc2ccc3c(c2)C(=O)N([C@H](C)CO)C[C@H](C)[C@H](CN(C)C(=O)Nc2ccc4c(c2)OCO4)OCCCC[C@@H](C)O3)cc1	10	9
C[C@@H]1CCCCO[C@@H](CN(C)C(=O)NC2CCCCC2)[C@@H](C)CN([C@H](C)CO)C(=O)c2cc(N(C)C)ccc2O1	7&-1	-2&-3
COCCOC(=O)N1C(=O)[C@@]2(c3ccccc31)[C@H](c1ccccc1OCCO)N1[C@H](c3ccccc3)[C@H](c3ccccc3)OC(=O)[C@H]1[C@@H]2C(N)=O	?	·
C[C@@H]1CCCCO[C@H](CN(C)C(=O)Nc2ccc(C(F)(F)F)cc2)[C@@H](C)CN([C@H](C)CO)C(=O)c2cc(NC(=O)NC3CCCCC3)ccc2O1	1	4
COc1ccc(NC(=O)N(C)C[C@H]2OCCCC[C@H](C)Oc3ccc(NS(=O)(=O)c4ccc(Cl)cc4)cc3C(=O)N([C@@H](C)CO)C[C@@H]2C)cc1	-17	-15
CO[C@@H]1CN(C)C(=O)c2ccc(NC(=O)c3cc(C)on3)cc2OC[C@H](C)N(CC2CC2)C[C@@H]1C	9	4
C[C@@H]1CN([C@H](C)CO)C(=O)c2cc(N(C)C)ccc2O[C@@H](C)CCCCO[C@H]1CN(C)C(=O)NC1CCCCC1	-18	-15
COc1ccccc1NC(=O)N1CCCCN2[C@H](CO)[C@H](c3ccc(C#CC4CC4)cc3)[C@@H]2C1	?	·
C[C@H]1CN([C@@H](C)CO)C(=O)c2cc(NC(=O)Nc3ccc(F)cc3)ccc2O[C@@H]1CN(C)C(=O)Nc1ccc2c(c1)OCO2	11	12
C[C@@H]1CN([C@@H](C)CO)C(=O)Cc2cc(NC(=O)CCC(F)(F)F)ccc2O[C@@H]1CN(C)S(=O)(=O)c1ccccc1	3	8
O=C(C[C@H]1CC[C@@H](NS(=O)(=O)c2ccccc2)[C@H](CO)O1)NCc1ccncn1	8	10
Cc1noc(C)c1NC(=O)N(C)C[C@@H]1Oc2cc(C#CCC(C)C)ccc2S(=O)(=O)N([C@@H](C)CO)C[C@H]1C	-11	-23
C[C@H](CO)N1C[C@H](C)[C@H](CN(C)C)Oc2ccc(NS(=O)(=O)c3cn(C)cn3)cc2CC1=O	4	6
CO[C@H]1CN(C)C(=O)c2cc(NC(=O)c3ccc4c(c3)OCO4)ccc2OC[C@@H](C)NC[C@H]1C	0	6
O=C(C[C@@H]1CC[C@@H](NC(=O)Cc2cccnc2)[C@H](CO)O1)Nc1ccc(-c2ccccc2)cc1	-17	-14
CCC(=O)N(C)C[C@@H]1Oc2cc(-c3ccc(F)cc3)ccc2S(=O)(=O)N([C@@H](C)CO)C[C@@H]1C	-7	-7
O=C(C[C@@H]1C[C@@H]2c3cc(NC(=O)C4CCC4)ccc3O[C@@H]2[C@@H](CO)O1)NCC1CC1	6	2
O=C(Nc1ccc(F)cc1)N[C@H]1CC[C@@H](CCNC(=O)c2cc(Cl)cc(Cl)c2)O[C@H]1CO	-24	-15
CC(C)CC#Cc1ccc2c(c1)O[C@@H](CN(C)S(C)(=O)=O)[C@H](C)CN([C@H](C)CO)S2(=O)=O	-3	-15
COc1ccc(NC(=O)Nc2ccc3c(c2)C(=O)N([C@H](C)CO)C[C@@H](C)[C@@H](CN(C)Cc2ccccc2)OCCCC[C@H](C)O3)cc1	?	·
CC(C)NC(=O)Nc1ccc2c(c1)C(=O)N([C@@H](C)CO)C[C@H](C)[C@@H](CN(C)Cc1ccc(C(F)(F)F)cc1)OCCCC[C@@H](C)O2	?	·
COC(=O)C[C@H]1CC[C@H]2[C@H](COc3ccc(NC(=O)Nc4cccc(Cl)c4)cc3C(=O)N2C)O1	-23	-14
C[C@@H]1CN([C@H](C)CO)C(=O)Cc2cc(NS(=O)(=O)c3ccc(F)cc3)ccc2O[C@H]1CN(C)S(=O)(=O)c1ccccc1	-4	4
O=C(NCC[C@H]1CC[C@H](NC(=O)c2ccccc2F)[C@H](CO)O1)c1ccc2c(c1)OCO2	4	14
C[C@H](CO)N1C[C@H](C)[C@@H](CN(C)C(=O)c2ccncc2)Oc2ncc(/C=C/c3ccccc3)cc2C1=O	18	3
C[C@H](CO)N1C[C@H](C)[C@@H](CN(C)Cc2ccc3c(c2)OCO3)Oc2ccc(NC(=O)c3ccncc3)cc2C1=O	13	7
C[C@H]1CN([C@@H](C)CO)C(=O)CCCn2nncc2CO[C@@H]1CN(C)C(=O)Nc1ccccc1	-3	-4
CCCC#Cc1cnc2c(c1)C(=O)N([C@H](C)CO)C[C@H](C)[C@@H](CN(C)C(=O)Nc1c(C)noc1C)O2	23	20
C[C@H]1CN([C@@H](C)CO)C(=O)c2cccc(NC(=O)c3ccncc3)c2O[C@@H]1CN(C)S(=O)(=O)c1ccc(Cl)cc1	-7	1
O=C(C[C@@H]1C=C[C@@H](NC(=O)C2CCC2)[C@@H](CO)O1)NC1CCCCC1	-1	-4
Cc1noc(C)c1S(=O)(=O)Nc1ccc2c(c1)C(=O)N([C@@H](C)CO)C[C@@H](C)[C@@H](CN(C)CC1CCCCC1)O2	-4	1
O=C(c1ccncc1)N1CC(=O)N2[C@H](CO)[C@H](c3ccc(-c4ccccc4F)cc3)[C@@H]2C1	17	7
COc1ccc(NC(=O)Nc2ccc3c(c2)C(=O)N([C@H](C)CO)C[C@H](C)[C@@H](CN(C)C(=O)c2ccccc2)OCCCC[C@H](C)O3)cc1	14	10
Cc1ccc(S(=O)(=O)N(C)C[C@H]2OCCCC[C@H](C)Oc3ccc(NS(=O)(=O)c4cn(C)cn4)cc3C(=O)N([C@@H](C)CO)C[C@H]2C)cc1	14	5
C/C=C/c1ccc([C@@H]2[C@H](CO)N3CCCCN(S(=O)(=O)c4ccc(F)cc4)C[C@@H]23)cc1	-35	-29
C[C@@H]1CN([C@H](C)CO)C(=O)c2cc(NC(=O)Nc3ccc4c(c3)OCO4)ccc2O[C@H]1CN(C)C(=O)Nc1ccc(C(F)(F)F)cc1	10	10
CCOC(=O)N(C)C[C@@H]1OCc2ccccc2-c2ccccc2C(=O)N([C@H](C)CO)C[C@@H]1C	19	27
COCC#Cc1cnc2c(c1)C(=O)N([C@@H](C)CO)C[C@H](C)[C@H](CN(C)C(=O)Nc1ccc(OC)cc1)O2	16	1
COCCNC(=O)C[C@@H]1C[C@H]2c3cc(N(C)C)ccc3O[C@H]2[C@H](CO)O1	1	0
CO[C@H]1CN(C)C(=O)c2cc(NC(=O)CC(F)(F)F)ccc2OC[C@H](C)N(S(=O)(=O)c2cn(C)cn2)C[C@@H]1C	21	15
COc1ccc2c3c(n(C)c2c1)[C@@H](CO)N(C(=O)c1ccncc1)CC31CCN(S(C)(=O)=O)CC1	6	-1
CCC(=O)Nc1ccc2c(c1)C(=O)N(C)C[C@H](OC)[C@H](C)CN(Cc1ccccc1OC)[C@H](C)CO2	-2	-2
CCC(=O)Nc1ccc2c(c1)C(=O)N(C)C[C@@H](OC)[C@H](C)CN(C(=O)Cc1cccnc1)[C@H](C)CO2	8	6
C[C@H](CO)N1C[C@H](C)[C@H](CN(C)C(=O)Nc2ccc(C(F)(F)F)cc2)Oc2ccc(NC(=O)CCN3CCOCC3)cc2C1=O	4	-2
CN1C(=O)c2cc(NC(=O)C3CCOCC3)ccc2OC[C@@H]2O[C@@H](CC(=O)NCc3ccc4c(c3)OCO4)CC[C@H]21	7	12
COc1cccc(C(=O)Nc2ccc3c(c2)C(=O)N(C)C[C@@H](OC)[C@@H](C)CN(C(=O)C2CCCC2)[C@@H](C)CO3)c1	?	·
CCCNC(=O)C[C@H]1CC[C@H]2[C@@H](COC[C@H](O)CN2CC2CCCCC2)O1	2	-2
Cc1ccc(S(=O)(=O)Nc2ccc3c(c2)C(=O)N([C@@H](C)CO)C[C@H](C)[C@H](CN(C)Cc2ccc(C(=O)O)cc2)OCCCC[C@@H](C)O3)cc1	32	12
C[C@@H]1CN([C@@H](C)CO)C(=O)c2cccc(NC(=O)C3CC3)c2O[C@H]1CN(C)Cc1ccc(C(=O)Nc2ccccc2N)cc1	-15	-4
O=C1c2ccccc2C(=O)N1C1CCN(Cc2cccc(OCCO)c2)CC1	6	5
CC(C)(O)C#Cc1ccc([C@H]2[C@@H](CO)N3CCCCN(C(=O)c4ccncc4)C[C@@H]23)cc1	37	3
CO[C@H]1CN(C)C(=O)c2ccc(NC(=O)c3ccc(F)cc3)cc2OC[C@@H](C)NC[C@@H]1C	0	8
CN1C(=O)c2cc(NC(=O)c3ccc(Cl)cc3)ccc2OC[C@H]2O[C@@H](CC(=O)NCc3cccc(F)c3)CC[C@H]21	-25	-17
CCCN(C)C[C@H]1Oc2ncc(-c3ccncc3)cc2C(=O)N([C@@H](C)CO)C[C@@H]1C	0	22
Cc1ccc(S(=O)(=O)N(C)C[C@H]2OCCCC[C@@H](C)Oc3ccc(NC(=O)Nc4ccc5c(c4)OCO5)cc3C(=O)N([C@@H](C)CO)C[C@@H]2C)cc1	5	3

As entered above.
Vaccinia inh Venus, C[C@H]1CN([C@@H](C)CO)C(=O)CCCn2nncc2CO[C@@H]1CN(C)C(=O)Nc1ccccc1 → -4
Vaccinia inh, C[C@@H]1CCCCO[C@@H](CN(C)C(=O)NC2CCCCC2)[C@@H](C)CN([C@H](C)CO)C(=O)c2cc(N(C)C)ccc2O1 → 7&-1
Vaccinia inh Venus, CCCN(C)C[C@H]1Oc2ncc(-c3ccncc3)cc2C(=O)N([C@@H](C)CO)C[C@@H]1C → 22
Vaccinia inh, C[C@H](CO)N1C[C@H](C)[C@H](CN(C)C)Oc2ccc(NS(=O)(=O)c3cn(C)cn3)cc2CC1=O → 4
Vaccinia inh Venus, Cc1noc(C)c1NC(=O)N(C)C[C@@H]1Oc2cc(C#CCC(C)C)ccc2S(=O)(=O)N([C@@H](C)CO)C[C@H]1C → -23
Vaccinia inh Venus, Cn1cnc(S(=O)(=O)N[C@@H]2C=C[C@H](CC(=O)NCC3CC3)O[C@H]2CO)c1 → 9
Vaccinia inh Venus, O=C(C[C@@H]1CC[C@@H](NC(=O)Cc2cccnc2)[C@H](CO)O1)Nc1ccc(-c2ccccc2)cc1 → -14

Next records.
SMILES	Vaccinia inh	Vaccinia inh Venus
C[C@H]1CN([C@@H](C)CO)C(=O)c2cc(-c3ccc(C(=O)N(C)C)cc3)cnc2O[C@@H]1CN(C)C(=O)c1ccncc1	13	1
C[C@@H]1CCCCO[C@H](CN(C)C(=O)Nc2ccc(C(F)(F)F)cc2)[C@@H](C)CN([C@@H](C)CO)C(=O)c2cc(NS(=O)(=O)c3ccc(Cl)cc3)ccc2O1	-25	-20
C[C@@H]1CN([C@H](C)CO)C(=O)c2cc(-c3ccc(C#N)cc3)cnc2O[C@@H]1CN(C)Cc1ccncc1	10	0
CC(C)NC(=O)N(C)C[C@H]1Oc2ncc(-c3ccc(C(=O)N(C)C)cc3)cc2C(=O)N([C@@H](C)CO)C[C@H]1C	20	9

Only part of the results is shown, so the mix of outcomes need not match the whole.
